CapD inh = blocks the Bacillus anthracis CapD enzyme | AID 492967 | z-score (concentration not given with the values) | actives 0.23% (n = 140,000) | purified CapD enzyme, fluorescence intensity read-out; active compounds read low; some hits fall short of the stated cut;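 active = z-score under -4 in either of two replicates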;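 note: stock transfer was 100 nL into about 40 µL; score is relative to mean and spread of the plate; one replicate is shown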
AID504770 = E. coli YBA685 growth inhibition, screen for V. cholerae RctB inhibitors. E. coli YBA685 rctB-dependent plasmid, OD600 growth, 3 h; active compounds read low. z-score (concentration not given with the values). actives 0.27% (n = 130,000). AID 504770;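 active = z-score under -2 on both plates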;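 note: wells of about 30 µL received 100 nL stock; score is relative to mean and SD of the test wells; the first replicate is given; strong numbers were not always called active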
* = called active by the depositor; x = no result given.

SMILES	CapD inh	AID504770
CSc1ccc(C2CC(=O)NC3=C2C(=O)CCC3)cc1 (centres undefined)	0.52	0
Cc1ccc2c(c1)N(C(C)C(=O)NCc1ccccn1)C(=O)CO2 (centres undefined)	0	1.4
Cc1cscc1S(=O)(=O)c1ccc(Cl)cc1	0.12	x
Cc1ccc(/C=N/N=C(/C(=O)c2ccccc2)c2ccccc2)o1	x	2.9
NC(=O)CNc1ncc(C(F)(F)F)cc1Cl	-0.35	-0.25
CN(Cc1ccccc1)S(=O)(=O)c1cc(Br)cnc1N	-1.8	-0.9
COc1ccc(C2=NN(S(=O)(=O)c3ccccc3)C(c3ccccc3F)C2)cc1OC (centres undefined)	-0.36	x
N#C/C(=C(/O)C(F)(F)F)c1nnc2n1CCCCC2	-0.29	-1
C/C=C/C(=O)NCc1ccccc1	x	-0.65
COc1ccccc1/C=c1\sc2n(c1=O)C(N)=C(C#N)C(c1ccccc1OC)C=2C#N (centres undefined)	0.075	x
CN(Cc1ccccc1)C(=O)C1CCCN1S(=O)(=O)c1ccc2c(c1)n(C)c(=O)c(=O)n2C (centres undefined)	6.5	-0.15
CNCc1c(C)nn(Cc2ccccc2Cl)c1C	x	2
CC(Sc1nnnn1-c1ccccc1)c1nc2scc(-c3ccccc3)c2c(=O)[nH]1 (centres undefined)	x	0.25
Cc1c(=O)n(OCc2ccccc2)c2ccccc2[n+]1[O-]	0.62	x
CCCCc1c(C)c(C#N)c2[nH]c3ccccc3n2c1=O	0.35	0.6

3 entries from above, set out differently.
SMILES | CapD inh | AID504770
CN(Cc1ccccc1)C(=O)C1CCCN1S(=O)(=O)c1ccc2c(c1)n(C)c(=O)c(=O)n2C (centres undefined) | 6.5 | -0.15
CNCc1c(C)nn(Cc2ccccc2Cl)c1C | x | 2
CC(Sc1nnnn1-c1ccccc1)c1nc2scc(-c3ccccc3)c2c(=O)[nH]1 (centres undefined) | x | 0.25

More records follow:
SMILES	CapD inh	AID504770
CCC(C)NCCOc1ccc(Cl)c(Cl)c1 (centres undefined)	x	0.6
C/C(=C\C(=O)C(F)(F)F)NCc1ccccn1	x	0
CC(C)(C)c1ccc(-c2nc3ccccc3c(=O)[nH]2)cc1	8.1	0.15
CC(=O)Nc1ccc(NC(=O)C2CCCCN2C(=O)C2CCC(C)CC2)cc1 (centres undefined)	-0.23	-0.9
Cc1c(N=Cc2ccccc2OCc2ccccc2)c(=O)n(-c2ccccc2)n1C	0.05	x
Cn1c2c(c(=O)n(C)c1=O)C(c1cccc(F)c1)C1=C(N2)c2ccccc2C1=O (centres undefined)	1.8	x
CCC(C)NC(=O)C1CCN(c2ncccn2)CC1 (centres undefined)	x	0.5
CCOc1ccc(NC(=O)C(C)C(Cc2ccc(C)cc2)C(=O)O)cc1 (centres undefined)	-0.025	0.7
CC1=C(C(=O)OCC2CCCO2)C(c2ccc([N+](=O)[O-])cc2)C2=C(CC(c3cccs3)CC2=O)N1 (centres undefined)	-0.46	x
Cc1sc2ncnc(NCC3CN(Cc4ccccc4)CCO3)c2c1C (centres undefined)	x	0.95
O=C(Nc1cc(C(=O)N2CCCCCC2)ccc1N1CC2CC(C1)c1cccc(=O)n1C2)c1ccccc1Br (centres undefined)	-0.69	x
O=C(c1cc2ccccc2oc1=O)N(Cc1ccccc1)Cc1ccccc1	29	-0.45
Cc1c(C(=O)NCCN(C)C)sc2ncnc(N3CCN(c4ccccc4F)CC3)c12	0.22	x
COc1cc(CCNC(=O)CCC(=O)Nc2ccc(Br)cn2)cc(OC)c1O	-0.21	x
COCC(=O)Nc1nc2ccccc2s1	0.22	0.15
Cn1c(CNC(=O)c2ccccc2)nnc1SCC(=O)N1N=C(c2ccc(Br)cc2)CC1c1ccc(F)cc1 (centres undefined)	1.1	x
Cc1ccc(CN(Cc2ccco2)C(=S)NCC(=O)NC2CC2)cc1	0.52	0.2
O=C(O)/C=C/C(=O)N1CCOCC1	x	-1.1
N#Cc1ccccc1N1CCN(C(=O)CSCC(=O)O)CC1	27	x
COC(=O)c1ccc2c3c(onc13)-c1ccccc1C2=O	-0.065	x
Cc1ccc(N2CCN(S(=O)(=O)c3ccc(C)c(Cl)c3)CC2)c(C)c1	-0.56	x
Fc1ccccc1COc1cccc2cccnc12	13	0.4
COc1ccccc1NC(=O)Nc1sc2c(c1C(N)=O)CCC2	x	-0.4
O=S(=O)(c1cccc(-c2nn3c(-c4ccncc4)nnc3s2)c1)N1CCCCC1	x	0
COC(=O)c1sc2ccccc2c1OC(=O)c1cccs1	-1.3	-0.2
CNS(=O)(=O)c1cc(S(=O)(=O)NC)c2cccc3c2c1NC3=O	18	x
CC(=O)C1=NN(c2ccc(Cl)cc2)C2(S1)SC(c1ccc(C)cc1)(c1ccc(C)cc1)c1ccccc12 (centres undefined)	-0.28	x
CC1CCN(C(=O)COC(=O)c2nn(-c3ccccc3C(F)(F)F)cc2O)CC1	x	2.5
COc1cccc(C2Nc3ccc4ccccc4c3C3=C2C(=O)CC(C)(C)C3)c1OCc1ccc(Cl)cc1Cl (centres undefined)	73	x
COC(=O)C1=CN(Cc2ccc(OC)c(OC)c2)C=C(C(=O)OC)C1c1ccccc1OCc1ccccc1	58	x
COc1cc(OC)nc(C2CCCCC2C(=O)NCc2ccccc2OC)n1 (centres undefined)	-0.47	x
O=C(O)C1CC(=O)N(c2ccccc2O)C1 (centres undefined)	-0.2	-1.1
COC(=O)c1c(NC(=O)C2CSC(c3ccncc3)=N2)sc(C)c1C (centres undefined)	x	-0.7
CCn1c(C(C)NC(=O)C(C)(C)C)nc2ccccc21 (centres undefined)	0.42	-0.75
CCCNc1nc2nc3ccc(C)cn3c(=O)c2cc1C(N)=O	x	-0.5
CCC(CN1CCOCC1)NS(=O)(=O)c1cc2[nH]c3c(c2cc1C)C(=O)CC(C)(C)C3 (centres undefined)	-0.12	1.1
CC1(C)COP(=S)(C(Nc2ccc(Cl)cc2)c2ccc(O)cc2)OC1 (centres undefined)	-0.47	-0.3
COC(CNC(=O)c1ccc2c(c1)ncn2-c1ccc(F)cc1F)OC	-0.26	0
CC(OC(=O)Cc1ccc(F)cc1)C(=O)Nc1ccc(S(N)(=O)=O)cc1 (centres undefined)	x	-0.9
COc1ccc(CCNC(=O)C2c3ccccc3C(=O)N2C2CCCC2)cc1OC (centres undefined)	-2.3	-0.65
COc1ccc(-n2nnnc2SC(C)C(=O)Nc2ccc(S(=O)(=O)N3CCOCC3)cc2)cc1 (centres undefined)	x	-0.6
COc1ccc(/C=C2\C(=O)NC(=S)N(c3cccc4ccccc34)C2=O)cc1OC	-0.36	x
COC(=O)C1=C(N)OC2=C(C(=O)CC(c3ccccc3)C2)C1c1cc([N+](=O)[O-])ccc1Cl (centres undefined)	-0.55	x
COC(=O)c1cc(COC(=O)c2cc3ccccc3cc2O)oc1C	x	-0.05
CC12CC3CC(C)(C1)CC(C(=O)NN)(C3)C2	-0.22	1.7

Of the compounds above, these have a furan ring, fused or not.
SMILES	CapD inh	AID504770
Cc1ccc(/C=N/N=C(/C(=O)c2ccccc2)c2ccccc2)o1	x	2.9
Cc1ccc(CN(Cc2ccco2)C(=S)NCC(=O)NC2CC2)cc1	0.52	0.2
COC(=O)c1cc(COC(=O)c2cc3ccccc3cc2O)oc1C	x	-0.05

(further entries)
SMILES	CapD inh	AID504770
CC(=O)Nc1ccc(Oc2cncc(Cl)c2)nc1	0.72	-0.65
COc1ccc2c(c1)c(CC(=O)Nc1c(C)n(C)n(-c3ccccc3)c1=O)c(C)n2C(=O)c1ccc(Cl)cc1	0.17	x
COc1ccc(/C=C/C(=O)N2c3ccccc3-c3c(ssc3=S)C2(C)C)cc1	0.44	x
O=c1cc(-c2ccccc2)nc(N2CCN(Cc3ccc4c(c3)OCO4)CC2)[nH]1	0.69	-0.5
OCc1sccc1Oc1ccccc1	0.17	0.25
CC1CCCC(NC(=O)COC(=O)CSc2nnc(-c3ccc(Cl)cc3)o2)C1C (centres undefined)	x	-0.85
Cc1cc(C)nc(SCC(=O)CSc2nc(C)cc(C)n2)n1	-1.2	2
Cc1ccc(S(=O)(=O)NC(C)C(=O)N2CCN(c3cccc(Cl)c3)CC2)cc1 (centres undefined)	0.095	-0.55
CCN1CCN(CC(O)COc2ccc(C3CCCCC3)cc2)CC1 (centres undefined)	-0.38	-0.75
COC(=O)c1ccc2c(=O)[nH]c(COC(=O)c3cccnc3Nc3ccccc3OC)nc2c1	x	-4*
Cc1cc2c3c([nH]c2cc1S(=O)(=O)NCCCc1ccco1)CCCC3=O	-0.08	0.3
CCOC(=O)N1CCC(Nc2ncnc3c2cnn3-c2ccc(C)cc2C)CC1	-0.45	x
N#CCSc1nc2ccccc2c(=O)n1CCCC(=O)NCc1ccccc1	-0.32	-0.55
C=CCC(NCc1ccccc1)c1ccco1 (centres undefined)	0.19	0.5
c1ccc2c(c1)cc(-c1nc3ccccc3[nH]1)c1nc3ccccc3n12	64	x
O=C(OCc1cccc(C(F)(F)F)c1)c1ccccc1F	x	1.2
C/C(=N\NC(=O)Cn1nnc(-c2ccccc2)n1)c1nonc1C	0.23	0
C=C(C)C(=O)Nc1ccc(O)c(-c2nc3ccccc3[nH]2)c1	-0.38	0.3
COc1cccc(-c2nc3sc4c(c3c(=O)n2CC(=O)Nc2ccccc2C(F)(F)F)CCCC4)c1	5.7	x
O=C(Oc1ccc(C2SCCS2)cc1)c1cccc(C(F)(F)F)c1	-0.075	-0.15
O=P(CN1CCN(c2ccccc2)CC1)(N1CCCCC1)N1CCCCC1	x	0
Cc1ccc(C(CC(=O)N2CCOCC2)c2ccccc2)c(O)c1C (centres undefined)	0.32	1.8
O=C(CSc1ncccc1C(=O)NCc1cccnc1)Nc1cccc(C(F)(F)F)c1	0.49	-0.25
CCN(C(=S)NC(=O)C1CCCC1)C1CCCCC1	x	-0.35
N#Cc1coc2ccccc2c1=O	-2	x
S=C1NCN(CCc2ccccc2)CN1CCCN1CCOCC1	-0.12	-0.45
CC1=Nc2ccccc2NC(=O)C1Sc1nc2ccccc2s1 (centres undefined)	0.53	0
CCc1c(O)c2ccccc2n(-c2ccccc2)c1=O	4.7	1.6
CC1=C(C(=O)OC2CCCC2C)C(c2ccc(Cl)cc2)NC(=O)N1 (centres undefined)	-0.095	0.25
O=C1/C(=C\c2ccccc2)C2=C(C(=O)N(c3ccccc3)C2c2ccccc2F)N1c1ccccc1 (centres undefined)	-0.34	x

One compound at a time, as listed above:
Profile of `Cc1ccc(C(CC(=O)N2CCOCC2)c2ccccc2)c(O)c1C` (centres undefined) = CapD inh = 0.32; AID504770 = 1.8
Profile of `CCc1c(O)c2ccccc2n(-c2ccccc2)c1=O` = CapD inh = 4.7; AID504770 = 1.6

Other entries:
SMILES	CapD inh	AID504770
CC(=O)NC(Cc1ccccc1)C(=O)NC1CCN(c2nnnn2-c2ccccc2)CC1 (centres undefined)	x	2
COc1ccc(-c2nc(SCC(N)=O)c3c(=O)n(C)c(=O)n(C)c3n2)cc1	-0.47	-0.05
Cn1nc(-c2ccc(OCC(N)=O)cc2)c2ccccc2c1=O	-0.005	0.5
O=C(CN1CCN(c2ccc(O)cc2)CC1)N(C1CCCCC1)C1CCS(=O)(=O)C1 (centres undefined)	x	-0.1
O=C(Nc1ccc(S(=O)(=O)NC2=NCCCCC2)cc1)C1=NN(c2ccccc2)C(=O)CC1	x	-0.35
O=c1[nH]nc(Sc2ncn[nH]2)c(=O)[nH]1	x	-0.7
COC(=O)C1=C(C(=O)OC)SC(=C2C(=S)C(C)(C)N(C(=O)c3ccccc3)c3ccc(OC(=O)c4ccccc4)cc32)S1	0.58	x
CO[C@H]1C[C@H](O[C@H]2[C@H](C)[C@@H](OC3O[C@H](C)C[C@H](N(C)C)[C@H]3O)[C@@H](C)C[C@]3(CO3)C(=O)[C@H](C)[C@@H](O)[C@@H](C)[C@@H](C)OC(=O)[C@@H]2C)O[C@@H](C)[C@@H]1O (some centres undefined)	0.69	1.1
O=C(CCSc1nnc(-c2ccncc2)o1)Nc1ccccc1	x	-0.05
CCOc1ccc(S(=O)(=O)Nc2cccc(-c3cn4cccc(C)c4n3)c2)cc1	0.56	-0.15
CCCCCC(=O)Nc1nnc(CCOCCOCCc2nnc(NC(=O)CCCCC)s2)s1	0.05	x
Clc1ccc(SCCc2nc3ccccc3o2)cc1	0.17	0.2
O=C(NCc1cccnc1)c1cccc(C(=O)NCc2cccnc2)c1	x	0.7
CCN(CC)C(=O)C(N)Cc1ccccc1 (centres undefined)	x	0.2
CC(C)C1N(c2ccccc2)CCN1c1ccccc1	x	-0.7

A different layout for some results above.
> CN(Cc1ccccc1)C(=O)C1CCCN1S(=O)(=O)c1ccc2c(c1)n(C)c(=O)c(=O)n2C (centres undefined)
  CapD inh: 6.5	AID504770: -0.15
> CNCc1c(C)nn(Cc2ccccc2Cl)c1C
  CapD inh: x	AID504770: 2
> CC(Sc1nnnn1-c1ccccc1)c1nc2scc(-c3ccccc3)c2c(=O)[nH]1 (centres undefined)
  CapD inh: x	AID504770: 0.25

Following part.
SMILES	CapD inh	AID504770
O=C(Oc1ccc(C(F)(F)F)cc1[N+](=O)[O-])c1c(F)cccc1F	0.23	x
CCOC(=O)c1cn(CC(C)C)c(=O)c2ccccc12	3.9	2
O=C(CSc1nc2c(c(=O)n1-c1ccc(Cl)cc1)SCC2)NCCc1ccccc1	0.31	-0.65
COc1ccc(CC(=O)Nc2ncn[nH]2)cc1	-0.65	-0.4
CCc1cc(/C(Cc2cscn2)=N\O)c(O)cc1O	x	-0.95
N#Cc1c(SCc2ccc(F)cc2)sc(C(=O)c2ccccc2)c1N	-0.96	x
